B2AR ag: agonists of human beta-2 adrenergic receptor inducing internalization. P07550. Am2.2-beta2AR cells, FAP receptor internalization, flow cytometry; reference of the scale not given here. response, % (no concentration beside the values). 340,000 tested, 0.43% active;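 active = response above a set limit, near 3 SD of response in nonfluorescent compounds, cut at about 42% in these data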;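 note: stock transfer was 100 nL into about 11 µL; a reference agonist was the positive control; negative values mostly stem from fluorescent compounds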
Target sequence (P07550 whole entry, looked up): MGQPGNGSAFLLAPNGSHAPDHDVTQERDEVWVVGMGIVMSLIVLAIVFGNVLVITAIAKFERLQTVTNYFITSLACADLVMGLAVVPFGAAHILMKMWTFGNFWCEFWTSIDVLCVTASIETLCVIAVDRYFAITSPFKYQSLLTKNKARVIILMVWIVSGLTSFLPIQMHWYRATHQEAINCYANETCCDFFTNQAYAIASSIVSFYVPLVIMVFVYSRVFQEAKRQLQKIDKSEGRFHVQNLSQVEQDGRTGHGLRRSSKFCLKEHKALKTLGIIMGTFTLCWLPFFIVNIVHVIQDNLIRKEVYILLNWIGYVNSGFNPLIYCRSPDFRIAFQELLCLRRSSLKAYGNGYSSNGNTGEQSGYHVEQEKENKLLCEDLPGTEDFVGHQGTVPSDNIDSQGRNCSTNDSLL
T cruzi inh: blocks replication of Trypanosoma cruzi | inhibition, % (test concentration not listed) | T. cruzi beta-gal in NIH3T3, luminescence, 90 h | 300,000 tested, 1.4% active | AID 1885;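 active = mean inhibition across valid replicates above about 55%, limit read from the data; inconclusive = mean below that limit but half or more replicates reach it; inactive = mean below it, under half of replicates reach it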;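 note: signal also drops with host cell toxicity which is not excluded here; 0% = plate median of DMSO wells and 100% = zero luminescence signal; higher percent means less beta-gal luminescence so fewer parasites; stock transfer was 50 nL into about 50 µL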
Bfl-1 A1 inh: inhibitors of the anti-apoptotic protein A1, read as caspase activation | MEF A1-2A-BIM cells, Caspase-Glo 3/7 luminescence, 3 h; percent of clofoctol response, vehicle zero | caspase activation, % (test concentration not listed) | 330,000 tested, 0.066% active;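 active = over half of replicate activation scores above 10%, or exactly half above 10 with the replicate mean above 10; inconclusive = replicate mean below 10 yet half the replicates above 10; inactive = over half of replicates below 10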;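 note: wells of about 30 µL received 50 nL stock; many hits fall short of the cut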
LANA-H2B inh: blocks KSHV LANA binding to histone H2A/H2B | cell-free LANA-H2A/H2B peptide, fluorescence polarization | AID 2629 | 320,000 tested, 0.6% active | Q9QR71 | inhibition, % (concentration not given with the values); in the data active = inhibition mostly above about 10%, no sharp cut-off; inactive = mostly below about 6.7%;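 note: stock transfer was 7.5 nL into about 10 µL; 0% = median of vehicle wells and 100% = median of positive control wells; one replicate is shown; the record names a cut of 25% in any replicate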
Calb FLC: affects C. albicans growth with fluconazole | 300,000 tested, 0.57% active | growth inhibition, % (test concentration not listed) | C. albicans CaCi-2 (fluconazole-resistant clinical isolate) + fluconazole, Alamar Blue growth, 48 h;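 active = most replicates above 75%; inconclusive = exactly half above 75%; inactive = most below 75%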;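 note: all wells also contain fluconazole at 8 µg/ml as a sub-toxic cotreatment; 0% = median of DMSO wells and 100% = median of geldanamycin control wells; wells of about 8 µL received 7.5 nL stock; the first replicate is given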
Beta apoptosis: beta cell apoptosis inhibition; INS-1E cytokine-induced death, ATP luminescence, 48 h; percent of positive-control rescue, neutral wells zero; protection from apoptosis, % (test concentration not listed); 300,000 tested, 0.8% active;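 active = all replicates at 75% or more, or half of them and the mean; inconclusive = half reach 75% but not the mean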;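 note: 0% = cytokine-treated negative control wells and 100% = positive control rescue; higher means more ATP so stronger rescue from cytokine killing; wells of about 40 µL received 100 nL stock; the first replicate is given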
rRNA inh HTS: inhibits bacterial ribosomal RNA function over humanized ribosomes; 350,000 tested, 1.6% active; GFP signal change (wild-type ribosome), % (concentration not given with the values); E. coli WT GFP vs humanized-ribosome RFP mutants, fluorescence, 24 h; active compounds read low; DMSO median 0, no signal -100;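 active = significant combined selectivity score with lowered wild-type GFP, culture density cut under 30%, mutant RFP and density less affected; inactive = any of these conditions unmet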; note: one replicate is shown; some compounds called inactive have numbers as strong as hits
ALR H2O2 inh: human ALR oxidase inhibition via reduced H2O2; P55789; 290,000 tested, 3.8% active; inhibition, % (no concentration beside the values); purified ALR, DTT oxidation, H2O2 HRP-luminol luminescence; AID 485317;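 active = mean and each replicate at 75% or more; inconclusive = only one of the two met; inactive = neither met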;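 note: stock transfer was 7.5 nL into about 7.5 µL; 0% = neutral wells and 100% = wells with inactivated enzyme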
Target sequence (P55789 whole entry, looked up): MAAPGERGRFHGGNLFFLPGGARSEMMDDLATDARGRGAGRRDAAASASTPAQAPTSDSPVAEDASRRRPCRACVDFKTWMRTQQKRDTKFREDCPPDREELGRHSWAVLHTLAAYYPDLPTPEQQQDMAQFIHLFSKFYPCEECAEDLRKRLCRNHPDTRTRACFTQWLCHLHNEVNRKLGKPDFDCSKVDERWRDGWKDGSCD
rRNA inh HTS OD600: second read-out of rRNA inh HTS, no call of its own (marks repeat the call); OD600 change, %; measured here: OD600 growth;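 optical density of the mix in the first replicate; 0 = DMSO median and -100 = no signal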
rRNA inh HTS RFP: second read-out of rRNA inh HTS, no call of its own (marks repeat the call); RFP signal change, %; measured here: RFP humanized mutant strains;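 first replicate; 0 = DMSO median and -100 = no signal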
* marks the source's active call; other numbers are inactive results; ? = inconclusive; nt = not tested or not shown.

SMILES	B2AR ag	T cruzi inh	Bfl-1 A1 inh	LANA-H2B inh	Calb FLC	Beta apoptosis	rRNA inh HTS	rRNA inh HTS OD600	rRNA inh HTS RFP	ALR H2O2 inh
Cc1cccc(Nc2c([N+](=O)[O-])c(=O)n(C)c3ccccc23)c1	4.4	36.7	0.4	0.6	-9.1	-2.2	nt	nt	nt	-41.8
Clc1ccc(OCc2nnc(-c3ccccc3Br)o2)c(Cl)c1	-10.7	24.5	-1.5	1.9	-9.1	-4.7	3.7	-0.9	2.0	-3.4
CCOCC(=O)N1CCN(c2ccc(F)cc2)CC1	-0.8	-6.4	-0.9	1.1	11.7	7.5	nt	nt	nt	67.5
Cc1ccc(CS(=O)(=O)CCC(=O)NCCCN2CCCC2=O)cc1	-3.5	-11.1	0.1	7.0	2.2	-1.5	nt	nt	nt	3.7
CCN(CC(=O)Nc1ccc(NC(C)=O)cc1)C(=O)Cc1c(Cl)cccc1Cl	0.7	4.4	0.7	5.1	21.9	0.0	2.3	4.5	-5.3	-6.7
CCOc1cccc(N(C(=O)c2ccco2)C(C(=O)NC2CCCC2)c2cccnc2)c1 (configuration not stated)	0.3	4.0	-1.0	-1.4	-4.0	-3.3	3.4	-4.3	-0.6	-1.0
CCOC(=O)/C(=N\Nc1ncnc2ccccc12)c1ccc(C)cc1	2.7	-10.1	0.3	-1.6	0.6	5.1	3.4	4.5	1.6	nt
Cc1cc(C(=O)CN2C(=O)NC3(CCC(C)CC3)C2=O)c(C)n1C (configuration not stated)	12.2	17.7	-0.2	1.4	-41.0	-0.2	8.6	15.9	-1.2	-7.5
CCN1CCc2c(sc(N)c2C#N)C1	-29.9	8.1	0.3	-5.6	-1.9	-5.0	nt	nt	nt	nt
Cc1ccc(NC(=O)c2cc(=O)c3ccccc3o2)c(C)c1	-55.6	-2.0	-0.4	2.2	-3.4	-7.9	-2.9	-3.6	-9.5	3.8
CCOC(=O)CSC1=C(C#N)C(c2ccc(C)s2)CC(=O)N1 (configuration not stated)	18.7	-43.5	0.6	0.1	5.7	nt	0.5	-8.2	5.6	-12.1
COc1cc(CN2CCC(C(=O)N3CCC(C)CC3)CC2)cc(Br)c1O	-8.7	-13.0	0.0	-6.7	?	-5.0	nt	nt	nt	23.6
COC(=O)c1ccccc1NC(=O)c1sc(Cl)nc1C	6.3	-17.6	-0.8	-0.2	12.8	0.0	5.0	3.0	-3.7	-5.0
O=C(COc1ccc(Cl)cc1)NCc1nnc(SCC(=O)N2CCCCCC2)o1	-21.1	5.9	0.3	4.1	3.2	-0.1	2.6	-2.3	-0.1	-28.1
Cc1ccc(S(=O)(=O)N2CCN(C(=O)c3ccco3)CC2)c(C)c1	-8.5	18.2	0.4	-9.1	-8.9	-3.9	3.5	4.9	-0.1	0.4
COc1cc(C(=S)N2CCOCC2)cc(OC)c1OC(=O)c1cc([N+](=O)[O-])cc([N+](=O)[O-])c1	9.0	4.4	0.2	-1.1	3.1	-5.2	nt	nt	nt	-10.9
O=C(O)c1cccc(-c2ccc(/C=C3/SC(=Nc4ccccc4)N(Cc4cccnc4)C3=O)o2)c1	10.6	-18.3	0.3	0.6	2.2	-11.3	10.9	10.6	-2.1	0.8
COc1ccc2c(CC(=O)Nc3ccccc3OC)coc2c1	7.0	6.2	-1.6	-0.1	15.4	1.4	-19.9	-16.5	2.6	-6.2
COc1ccc(C2c3cc(OC)c(OC)cc3CCN2C(=O)c2ccccc2Br)cc1OC (configuration not stated)	9.9	5.7	0.2	-2.0	11.2	2.9	-1.1	14.0	2.6	5.2
Cc1oc(-c2ccc(Cl)cc2)nc1CN1CCCC(C(=O)NCc2ccccn2)C1 (configuration not stated)	-3.7	38.3	0.4	-7.1	22.6	-0.1	nt	nt	nt	-1.1
CC(C)(C)OC(=O)NCCCC[C@H](NC(=O)c1nc[nH]c1C(=O)NCC(=O)OCc1ccccc1)C(=O)OC(C)(C)C	3.2	5.3	1.9	-1.6	15.3	-4.8	0.9	-5.6	7.1	nt
CC(NC(=O)CN(C)CC(=O)Nc1ccccc1Br)c1ccccc1 (configuration not stated)	-0.4	nt	-0.9	1.1	nt	-8.2	1.6	-11.4	0.6	nt
CCc1ccnc(NC(=O)NS(=O)(=O)c2ccc(C)cc2)c1	-2.2	-13.2	0.0	0.7	-17.9	3.3	21.5	9.6	5.1	nt
O=C1CC(=O)Nc2cc(S(=O)(=O)N3CCN(c4ccc([N+](=O)[O-])cc4)CC3)ccc2N1	-1.3	-1.2	-0.4	2.8	-17.8	1.5	-7.8	-6.2	-2.4	-4.0
COc1ccc(OCCC(=O)OCC(=O)NC2CCCCC2)cc1	-1.4	nt	-0.6	-2.1	nt	-1.8	-0.8	1.0	4.0	2.5
O=C(NNC(=O)c1csc(N2CCOCC2)n1)c1ccc(=O)[nH]c1	0.4	nt	0.7	-2.3	nt	0.1	nt	nt	nt	nt
CCOC(=O)c1cc2sccc2n1CC(=O)Nc1ccc(OC)cc1OC	-9.1	9.3	0.1	6.6	5.0	1.2	12.4	22.0	1.0	-10.6
CCOC(=O)C1(Cc2ccccc2Cl)CCN(C(=O)c2cc(C)on2)CC1	0.7	11.2	0.5	0.6	16.5	-1.9	0.3	1.9	2.1	-0.9
O=C(c1ccc(C(F)(F)F)cc1)N1CCC(=O)N(C(COCc2ccc(C(F)(F)F)cc2)Cc2ccccc2)CC1 (configuration not stated)	-10.0	18.9	0.5	-0.1	2.0	2.2	6.6	-1.3	4.0	-7.1
C/C(=N\NC(=O)Cc1cccn1C)c1cccs1	-1.5	-8.3	0.7	1.9	-1.2	-4.1	nt	nt	nt	15.7
O=C(OCC(=O)N1CCc2ccccc2C1)c1cccc([N+](=O)[O-])c1	0.5	-13.2	0.8	-0.3	-4.4	-4.4	3.9	-0.7	-1.9	1.0
O=C(OCC(=O)N1CCN(c2ccccc2)CC1)c1cc(Br)ccc1Cl	-9.2	nt	-0.1	-2.3	nt	-11.2	-13.7	-19.1	0.4	nt
O=C(CN1CCN(c2cccc(Cl)c2)CC1)Nc1nccs1	-0.2	-4.6	-0.4	1.0	-3.5	-3.4	-23.2	-10.4	-6.6	19.7
CN1CCN(c2nc(-c3cccs3)nc3ccccc23)CC1	-9.2	40.6	1.2	-1.3	7.4	13.8	-16.5	-6.7	1.2	-5.0
CSc1nnc(N2C(=O)C(O)=C(C(=O)c3ccco3)C2c2ccc(F)cc2)s1 (configuration not stated)	-5.0	-10.1	1.3	0.8	-9.4	-1.3	-9.2	-6.8	10.8	9.8
N#Cc1c(N)oc(-c2cccs2)c1-c1cccs1	6.6	-12.7	-1.0	4.5	-8.5	-3.7	nt	nt	nt	-21.9
O=C(c1cccs1)N1CCN(c2cccc(Cl)c2)CC1	2.8	-3.3	-0.5	-1.9	-2.0	-3.4	-5.2	-3.9	-1.0	4.4
Cc1cc(C)cc(C(=O)NCC(=O)OCC(=O)Nc2cccnc2Cl)c1	3.8	-11.1	1.3	-0.1	29.1	2.7	nt	nt	nt	-35.7
O=C(O)[C@@H]1CCCN1C(=O)CCc1c[nH]c2ccccc12	-5.9	-20.7	1.8	-5.9	2.8	-1.4	8.3	2.9	-1.2	-0.4
C=CCn1c(-c2ccc([N+](=O)[O-])cc2)n[nH]c1=S	3.2	2.3	-0.5	-2.0	-19.1	nt	nt	nt	nt	17.1
Cc1c(C(=O)NC2CC(=O)N(c3ccc4c(c3)OCCO4)C2)cccc1[N+](=O)[O-] (configuration not stated)	1.0	-2.7	-0.1	3.1	-1.1	-3.5	-4.6	3.1	-3.2	-2.6
COCCNC(=O)C(=O)c1cc(C)n(-c2ccc([N+](=O)[O-])cc2)c1C	2.0	12.7	-0.2	2.9	19.4	-4.4	nt	nt	nt	97.4*
Cc1ccc(S(=O)(=O)N2[C@@H](c3ccccc3F)C(C(=O)O)=CC[C@H]2c2ccc3c(c2)OCO3)cc1	-6.3	nt	-0.8	0.4	nt	-4.6	-20.9*	-14.1*	-1.0*	0.2
Cc1ccc(C(=O)Nc2cccc(O)c2)cc1S(=O)(=O)N1CCCCCC1	8.0	-8.7	-1.2	-4.0	3.0	-3.5	3.4	2.8	-2.4	nt
Cc1cc(NS(=O)(=O)c2ccc(-c3ccccc3)cc2)no1	2.8	-18.4	-0.4	-2.1	?	nt	nt	nt	nt	-2.1
O=C(NC1=NCCS1)C1CCCCC1	-2.2	-1.6	0.4	-4.3	-10.9	-4.1	9.9	-5.9	-1.4	nt
CC(NC(=O)CCNS(=O)(=O)c1cccc2nonc12)c1ccccc1 (configuration not stated)	3.6	1.2	1.4	3.8	-9.8	-6.1	2.6	10.0	-1.8	nt
COC(=O)c1sccc1NC(=O)c1cccnc1	-6.5	-4.4	-0.4	-0.7	24.4	4.1	nt	nt	nt	-2.4
COCc1cc(=O)n2[nH]c(C)c(-c3ccccc3)c2n1	-3.6	-15.0	0.3	8.5	-6.6	-2.3	-0.4	0.3	-2.6	50.6
CCOC(=O)C1CCN(C2=NC(=O)/C(=C/c3ccc(O)cc3)S2)CC1	12.5	-8.1	-0.1	-2.6	-11.1	-1.9	-12.2	-10.0	4.5	98.4*
CC(=O)Nc1ccc(S(=O)(=O)NC2CC(=O)N(c3ccc4c(c3)OCCO4)C2)cc1 (configuration not stated)	1.5	-9.3	0.5	-2.7	-1.1	nt	6.0	8.4	0.4	-10.2
Cc1cccc(C(=O)O/N=C2\CCSc3ccc(C)cc32)c1	-6.5	-1.9	0.1	4.0	-3.8	-4.5	nt	nt	nt	7.4
CN(C)CCCN(C(=O)COc1ccccc1)c1nc2c(Cl)cccc2s1	-0.5	44.8	0.2	-0.1	-24.3	-7.5	6.0	-4.6	1.7	34.0
COc1ccc(COc2cc(-c3cccc(OC)c3)nc3ccc(NC(=O)C(C)C)cc23)cc1	6.3	13.1	0.6	0.8	-0.8	6.8	-0.5	12.3	-0.1	nt
Cc1ccccc1NC(=O)c1cccc2nc3ccccc3nc12	0.3	40.3	0.1	1.2	62.7	23.2	nt	nt	nt	4.7
CC(C)(C)c1cc(N2CCOCC2)n2ncc(-c3ccccc3)c2n1	-4.8	25.2	-3.2	1.9	1.1	-6.7	12.0	9.3	-1.3	-11.0
CC(=O)c1ccc(NC(=O)/C(=C\c2ccc(F)cc2)NC(=O)c2ccco2)cc1	-12.0	12.7	0.8	1.0	1.2	-2.3	-3.5	-1.2	0.3	1.7
COc1ccc(N2C(=O)c3ccccc3NC23CCCC3)cc1	4.7	-6.7	-6.2	0.8	0.1	-3.1	12.7	18.6	2.9	-2.5
COc1cc(-c2nc(-c3ccc(Br)o3)no2)cc(OC)c1OC	-2.0	13.7	0.6	-1.0	0.5	nt	1.4	3.6	-4.5	-8.3

The list is partial; rates above refer to the full screens.
